Vaccinia mCherry = vaccinia inhibition (mCherry reporter); Vaccinia virus mCherry reporter infection, fluorescence; about a quarter of the inactives have no number; Potency, µM (doses to about 36.5 µM), for inactives: top-dose activity change, negative = inhibition, usual class: inhibitors; hit rate 0.63% among 310,000; AID 720579; active = well fitted inhibition curve with a large enough effect; inconclusive = small, poorly fitted or top-dose-only effect; inactive = no such curve, though single readings can be large or run the other way; tested in A549 cells; further: nearly all actives have a fitted effect of over 35% in size; inactives centre near -10
VACV Venus inh = vaccinia inhibition (Venus reporter); Vaccinia virus Venus reporter expression, fluorescence; Potency, µM (doses to about 36.5 µM), for the others: at the highest dose activity change, negative = inhibition, actives largely listed as inhibitors; hit rate 0.46% among 330,000; active means well fitted inhibition curve with a large enough effect; inconclusive means small, poorly fitted or top-dose-only effect; inactive means no such curve, though single readings can be large or run the other way; tested in A549 cells; further: nearly all actives have a fitted effect of over 30% in size; inactives centre near -10
* hit, by the source's call; i = inactive; ? = inconclusive; . = not tested or not shown; [ ] = remark or other dose. On the % scale 0 is the no-effect control and ±100 the full control effect; potency means the concentration at half of the fitted maximal effect.

entry | structure | Vaccinia mCherry | VACV Venus inh
1 | NC1(C(=O)O)CSSC1 | ? | ?
2 | Cc1noc(C)c1CSCC(=O)Nc1nc2c(F)cc(F)cc2s1 | -10% | -1%
3 | Cc1ccc(S(=O)(=O)Nc2nonc2C)cc1 | -4% | -3%
4 | CSc1ccc(S(=O)(=O)N2CCC(C(=O)NCCN3CCOCC3)CC2)cc1 | -23% | -4%
5 | CO/N=C(/CS(=O)(=O)c1ccc(C)cc1)c1ccc(OC)cc1 | -21% | -24%
6 | Cc1cccc(C)c1NC(=S)N/N=C/c1ccc(C(=O)O)cc1 | i | -14%
7 | Nc1nnc(CC(=O)N/N=C/c2ccc([N+](=O)[O-])cc2)s1 | -11%[7.34 µM] | 12%[7.34 µM]
8 | C=C1C2C[C@@]3([C@@H]1O)[C@@H](C[C@@H]2O)[C@@]12C4[C@@H]3C[C@@H]1[C@@](C)(CC[C@@H]2O)CN4CC | i | -8%
9 | CC(C)(CO)NCc1cccc(OCc2ccc(Cl)cc2)c1 | -17% | -26%
10 | Cc1cc(C)cc(OC(=O)CN2C(=O)c3ccccc3C2=O)c1 | -15% | -3%
11 | Cc1cc(C)n(-c2nc3ccccc3nc2N2CCOCC2)n1 | -11% | -3%
12 | O=S(=O)(Nc1nc(-c2ccco2)c(-c2ccco2)s1)c1ccc(F)cc1F | i | -17%
13 | Nc1ncn(C(=O)c2ccco2)n1 | -4% | -6%
14 | CCC(=O)OCC(=O)Nc1ncc(C(F)(F)F)cc1Cl | -13% | 5%
15 | Cc1nc(N2CCCC2)ncc1C(=O)N1CCN(c2ccccc2F)CC1 | 8% | -2%
16 | COc1ccc(C(C(=O)NCCC(C)C)N(CCN2CCOCC2)C(=O)Cn2nnc3ccccc32)c(OC)c1 (configuration not stated) | i | -8%
17 | CS(=O)(=O)c1ccc(Cl)c(NC(=O)CCc2ccccc2)c1 | -4% | -6%
18 | CN(C(=O)Cn1cc(C(F)(F)F)cc(Cl)c1=O)C1CCS(=O)(=O)C1 (configuration not stated) | -6% | 2%
19 | CC(C)(C)c1ccc(OCC(O)CSc2ncn[nH]2)cc1 (configuration not stated) | -15% | -9%
20 | CC(N=c1ccccn1C(=O)Nc1cccc(C(F)(F)F)c1)c1ccco1 (configuration not stated) | -10% | -8%
21 | COc1ccc(S(=O)(=O)Nc2cccc(-c3ccc(N4CCCC4)nn3)c2)cc1F | -13% | -12%
22 | CCOc1ccc(S(=O)(=O)N2CCC(C(=O)NC3CCCCC3)CC2)cc1 | -11% | 2%
23 | CC(C)N(C(=O)Cn1cc(S(=O)(=O)Cc2ccc(Br)cc2)c2ccccc21)C(C)C | -17% | -15%
24 | NC(=S)N1OC[C@@H]2COc3ccc4ccccc4c3[C@@H]21 | ? | ?
25 | Cc1onc(C(=O)NN)c1C(=O)N1CCN(C(c2ccccc2)c2ccccc2)CC1 | ? | 6%

Three entries drawn at random from the list so far, as already listed:
entry | structure | Vaccinia mCherry | VACV Venus inh
2 | Cc1noc(C)c1CSCC(=O)Nc1nc2c(F)cc(F)cc2s1 | -10% | -1%
13 | Nc1ncn(C(=O)c2ccco2)n1 | -4% | -6%
22 | CCOc1ccc(S(=O)(=O)N2CCC(C(=O)NC3CCCCC3)CC2)cc1 | -11% | 2%

(listing goes on)
entry | structure | Vaccinia mCherry | VACV Venus inh
26 | O=[N+]([O-])c1ccc(C2C3C(c4ccccc4)=NC4(CCCCC4)N32)cc1 (configuration not stated) | -10% | -14%
27 | Cc1sc2nc(C(C)C)nc(SCC(=O)NC3CC3)c2c1C | -2% | 8%
28 | COc1cc(OC)cc(C(=O)OCc2cc3ccccc3[nH]c2=O)c1 | -22% | -10%
29 | COc1ccc(CNC(=O)c2c(O)c3cccc4c3n(c2=O)CCC4)cc1OC | . | -24%
30 | O=C(/C=C/c1ccccc1Cl)N1CCN(c2ncccn2)CC1 | i | -7%
31 | O=C(NCCc1ccccc1)c1ccc([N+](=O)[O-])cc1 | -18% | -9%
32 | O=C(Cn1nnc2sc(-c3ccccc3)cc2c1=O)Nc1cccc(C(F)(F)F)c1 | -10% | 11%
33 | Nc1cc(=O)[nH]c(=O)n1-c1cccc(F)c1 | i | -4%
34 | CC(NC(=O)c1ccc(N2CCCC2)c([N+](=O)[O-])c1)c1ccc(S(N)(=O)=O)cc1 (configuration not stated) | -5% | -14%
35 | Cc1ccc(C)c(S(=O)(=O)N2CCN(C(=O)CN3C(=O)C4CC=CCC4C3=O)CC2)c1 (configuration not stated) | -8% | -16%
36 | COCc1cc(=O)[nH]c(/N=C(\N)Nc2c(F)cccc2F)n1 | i[7.34 µM] | -10%[7.34 µM]
37 | COC(=O)c1ccccc1NC(=O)C(CCS(C)(=O)=O)NC(C)=O (configuration not stated) | . | -29%
38 | Cn1cnc(S(=O)(=O)N2CCCC(C(=O)Nc3ccc(OC(F)(F)F)cc3)C2)c1 (configuration not stated) | -10% | -7%
39 | CSc1nsc(SCC(=O)NCc2ccc(C)cc2)n1 | -6% | -16%
40 | c1cc2c(cc1C1OCC3C(c4ccc5c(c4)OCO5)OCC13)OCO2 (configuration not stated) | -15% | -13%
41 | Cc1ccc(CN2CC(C(=O)N3CCN(S(=O)(=O)c4c(F)cccc4F)CC3)CC2=O)cc1 (configuration not stated) | -18% | -23%
42 | C/C(N)=C(/C#N)C(=O)CSc1nc2cc(Cl)ccc2s1 | -7% | -21%
43 | COc1ccc(C(=O)c2oc3ccc(OC)cc3c2N)cc1 | ? | -14%
44 | CCOc1ccccc1NC(=O)CN1C(=O)C2(SCC(=O)N2c2cccc(F)c2)c2ccccc21 (configuration not stated) | -11% | -11%
45 | COCC(=O)N(Cc1cc2ccccc2[nH]c1=O)c1ccccc1OC | . | -4%
46 | COCCCN1C2=C(C(=O)CC(C)(C)C2)C(c2ccc(O)c(OC)c2)C2=C1CC(C)(C)CC2=O | -17% | -1%
47 | NS(=O)(=O)c1ccc(N/C=C\C(=O)c2ccc(F)cc2)cc1 | -7% | -18%
48 | COc1cc(OC)cc(C(=O)Nc2ccc(S(=O)(=O)Nc3cnc4ccccc4n3)cc2)c1 | -13% | -9%
49 | Cc1ccc(Nc2c(-c3ccc(C)s3)nc3ncccn23)cc1 | -2% | -8%
50 | O=C(COC(=O)c1ccc(S(=O)(=O)NCc2ccco2)cc1)c1ccccc1 | -20% | -6%

Profiles from above. Order of screens: Vaccinia mCherry	VACV Venus inh
Listed for `CC(NC(=O)c1ccc(N2CCCC2)c([N+](=O)[O-])c1)c1ccc(S(N)(=O)=O)cc1` (configuration not stated) → -5%	-14%
Listed for `NS(=O)(=O)c1ccc(N/C=C\C(=O)c2ccc(F)cc2)cc1` → -7%	-18%
Listed for `Nc1cc(=O)[nH]c(=O)n1-c1cccc(F)c1` → i	-4%
Listed for `O=C(/C=C/c1ccccc1Cl)N1CCN(c2ncccn2)CC1` → i	-7%
Listed for `COc1ccc(C(=O)c2oc3ccc(OC)cc3c2N)cc1` → ?	-14%

Next results:
entry | structure | Vaccinia mCherry | VACV Venus inh
51 | COc1cc(C2c3c(oc4cc(C)c(C)cc4c3=O)C(=O)N2c2cc(C)ccn2)ccc1O (configuration not stated) | -17% | -11%
52 | CCc1cccc(C)c1NC(=O)Cn1cnc2c1c(=O)n(C)c(=O)n2C | -12% | -5%
53 | N/C(=N\OC(=O)c1cccc(Br)c1)c1ccncc1 | i | 6%
54 | COc1ccc(OC)c(CN2C(=O)CSCC2(C)C(=O)Nc2c(C)cccc2C)c1 (configuration not stated) | i | 0%
55 | CCc1ccc(NC(=O)C(=O)NNC(=O)COc2cccc(OC)c2)cc1 | 11% | -3%
56 | O=C(c1ccccc1F)N1N=C(C(F)(F)F)CC1(O)c1ccccc1 (configuration not stated) | -6% | -13%
57 | COc1cc(NS(=O)(=O)c2c(C(=O)N3CCOCC3)c(C)n(C)c2C)cc(OC)c1OC | -17% | -1%
58 | CCN(C(=O)c1ccc(NC(=O)c2ccco2)cc1)c1ccccc1 | -3% | -3%
59 | COC(=O)c1ccc2c(=O)n(Cc3ccc(C(=O)NC4CCCC4)cc3)c(=S)[nH]c2c1 | i | 0%
60 | O=C(CSc1ccc(S(=O)(=O)N2CCCC2)cn1)Nc1ccc([N+](=O)[O-])cc1C(F)(F)F | -6% | -17%
61 | COc1ccc(/C=C/C(=O)NCC(=O)N/N=C(/C)c2ccco2)cc1 | i | -16%
62 | Cc1ccc(NC(=O)Cn2c(=O)n(Cc3ccccc3)c(=O)c3c(C)c(C(=O)N(C)C)sc32)c(C)c1 | -14% | -2%
63 | CCOc1ccccc1NC(=S)N1CCC(c2nc3ccccc3o2)CC1 | -14% | -24%
64 | O=C(CSc1nnc(NC(=O)c2ccccc2)s1)NCC1CCCO1 (configuration not stated) | -9% | -10%
65 | CCOC(=O)C(C#N)=CN1CCN(C(=O)CCCl)c2ccccc21 | ? | ?
66 | CCc1ccccc1NC(=O)CNC(=O)CCNC(=O)Nc1ccccc1 | -14% | -8%
67 | CC(C)CNC(=O)C1CCN(S(=O)(=O)c2ccc3c(c2)OCCO3)CC1 | -7% | -5%
68 | N/C(=N\N=C\c1ccco1)SC1CC(=O)N(c2ccccc2)C1=O (configuration not stated) | -1% | -6%
69 | O=C1NCCCCC1NS(=O)(=O)c1ccccc1 (configuration not stated) | i | -11%
70 | O=C(N/N=C\C=C\c1ccco1)c1cncc(Br)c1 | -12% | -11%
71 | CC/C(=C\c1ccc(N(C)C)cc1)c1ccncc1 | -20% | -22%
72 | Cc1ccc(Cn2c(SCCN3CCCCC3)nc3c2c(=O)n(C)c(=O)n3C)cc1 | . | ?
73 | COc1cc(/C=C2\C(=O)NC(=O)N(CCc3ccc(F)cc3)C2=O)ccc1O | i | -15%
74 | O=C(COC(=O)C12CC3CC(CC(Br)(C3)C1)C2)N1CCOCC1 | -4% | -3%
75 | COc1ccc(NC(=O)C2CCN(S(=O)(=O)c3ccc(Cl)c(C(F)(F)F)c3)CC2)cn1 | -27% | ?
76 | O=C(COc1ccccc1)N1CCN=C1SCc1ccccc1 | -6% | -14%
77 | Cc1ccc(C(=O)NCCc2nnc3ccc(SCC(=O)N4CCCC4)nn23)cc1 | i | -10%
78 | O=C(COC(=O)CCc1ccccc1)NC12CC3CC(CC(C3)C1)C2 | -15% | -6%
79 | CCCn1c(N2CCC(Cc3ccccc3)CC2)nc2c1c(=O)[nH]c(=O)n2C | . | ?
80 | CCOc1ccccc1NC(=O)CCc1ccc(C)o1 | . | -16%
81 | Cc1cc(-n2ccnc(NCCc3ccc(S(N)(=O)=O)cc3)c2=O)ccc1Br | -22% | -12%
82 | Cc1nn(CC(=O)NC(C)c2ccccc2)c(=O)c2cc3occc3n12 (configuration not stated) | -16% | -5%
83 | Cc1ccc(C2c3[nH]c4ccccc4c3CCN2C(=O)CCc2ccccc2)cc1 (configuration not stated) | -24% | -3%
84 | O=C(c1cc2cc(Cl)ccc2oc1=O)N1CCOCC1 | i | -18%
85 | CCN1C(=O)C2(c3ccccc31)c1c(oc3ccccc3c1=O)C(=O)N2CCOC (configuration not stated) | -9% | 1%
86 | Cc1cc(=O)[nH]c(/N=C(\N)Nc2cccc3ccccc23)n1 | -10% | ?
87 | CCN(C(=O)COC(=O)COc1ccc2c(c1)CCC2)c1c(N)n(Cc2ccccc2)c(=O)[nH]c1=O | -20% | -16%
88 | CCCNC(=O)C1(C)CCN(C(=O)COc2ccc(Cl)cc2Cl)C1 (configuration not stated) | i | -7%
89 | Cc1ccc(-c2cc(N)nc(-c3ccccc3)c2)cc1 | ? | -24%
90 | CCn1ccc(C(=O)Nc2cccc(Cl)c2)n1 | i | -19%

In the list so far, two have a COOH group.
entry | structure | Vaccinia mCherry | VACV Venus inh
1 | NC1(C(=O)O)CSSC1 | ? | ?
6 | Cc1cccc(C)c1NC(=S)N/N=C/c1ccc(C(=O)O)cc1 | i | -14%

Screening results: PubChem BioAssay, National Center for Advancing Translational Sciences (NCATS)
